Source: PubChem (several laboratories)
MT1-MMP act inh: blocks activation of human MT1-MMP; 360,000 compounds, 0.061% hits; P50281; AID 651647; GFP/RFP ratio change, % at 20 µM; HT1080 RFP-PRO-GFP cells, GFP/RFP ratio fluorescence, overnight; percent of plate control window, DMSO zero;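 active means GFP/RFP ratio change of at least 30% with cell ATP level not reduced by more than half and red fluorescence within 50% of control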; further: strong numbers were not always called active
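Test system: HT1080 RFP-PRO-GFP cells; Benchmarks: DMSO and RFP-L50D-GFP cell wells; Timing: cells overnight before dosing, compound overnight, 37 °C, 5% CO2; Compound: one 20 µM compound dose with 1% DMSO; Read-out: GFP/RFP fluorescence ratio.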
HIV Env fusion: blocks HIV Env-driven cell-cell fusion. 360,000 compounds, 1.1% hits. HeLa-JRFL Env/CEM21 cell fusion, luciferase. AID 651610. inhibition, % at 12.3 µM;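 active means mean replicate inhibition score of at least 50 and every replicate individually at or above 50; inconclusive means only one of the two criteria met; inactive means mean below 50 and not all replicates reaching 50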;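 further: 0% = plate neutral controls and 100% = maraviroc near 300 nM; one replicate is shown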
eIF4H inh: inhibitors of RNA binding by human eIF4H; eIF4H fluorescence polarization binding assay; AID 2012; Q15056; 290,000 compounds, 0.94% hits; inhibition, % at 35 µM;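 active means 50% or more with normal probe brightness, or confirmed in later tests; inconclusive means above 50% with abnormal brightness, or retests that disagree; inactive means below 50% or failed in later tests; about a fifth of its hits are not listed in these tables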;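 further: calls also rest on retests at 20 µM and on dose response follow-up; 0% = protein and probe with vehicle and 100% = probe without protein; strong numbers were not always called active; many hits fall short of the cut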
PABP polyA inh: blocks human PABP binding to poly(A) RNA | AID 2014 | P11940 | fluorescence polarization | inhibition, % at 35 µM | 290,000 compounds, 1% hits;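 active means 50% or more with normal probe brightness, or confirmed in later tests; inconclusive means above 50% with abnormal brightness, or retests that disagree; inactive means below 50% or failed in later tests; about a fifth of its hits are not listed in these tables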;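 further: calls also rest on retests at 20 µM and on dose response follow-up; controls were probe without protein and protein plus probe with vehicle; some compounds called inactive have numbers as strong as hits; many hits fall short of the cut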
Target sequence (P11940 whole entry, looked up): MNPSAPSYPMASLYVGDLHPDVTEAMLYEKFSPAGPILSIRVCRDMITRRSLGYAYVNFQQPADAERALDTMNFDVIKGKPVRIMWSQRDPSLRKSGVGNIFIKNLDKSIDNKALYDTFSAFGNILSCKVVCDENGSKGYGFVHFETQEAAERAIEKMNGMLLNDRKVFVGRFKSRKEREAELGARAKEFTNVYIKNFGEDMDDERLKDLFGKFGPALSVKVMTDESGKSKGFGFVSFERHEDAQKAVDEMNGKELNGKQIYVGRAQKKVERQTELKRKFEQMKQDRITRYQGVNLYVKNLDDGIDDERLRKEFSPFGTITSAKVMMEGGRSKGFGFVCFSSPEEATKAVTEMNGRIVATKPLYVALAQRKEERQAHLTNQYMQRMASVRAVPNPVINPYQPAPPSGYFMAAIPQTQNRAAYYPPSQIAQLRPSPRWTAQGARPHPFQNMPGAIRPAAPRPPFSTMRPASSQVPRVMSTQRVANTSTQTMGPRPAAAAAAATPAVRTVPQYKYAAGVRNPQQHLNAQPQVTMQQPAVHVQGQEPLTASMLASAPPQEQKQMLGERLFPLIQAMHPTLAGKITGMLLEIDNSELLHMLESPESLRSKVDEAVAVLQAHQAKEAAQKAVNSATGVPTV
Rce1 inhib: inhibitors of yeast Ras-converting enzyme. Q03530. calls only. yeast membranes, quenched prenylated peptide cleavage fluorescence. AID 2563. 290,000 compounds, 0.27% hits;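 active means fall in fluorescence gain of 50% or more versus controls, with final raw signal at or below 3038400; inconclusive means same 50% fall but final raw signal above 3038400; inactive means fall in fluorescence gain under 50%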;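 further: plate controls were neutral control wells for no effect and wells lacking membranes for full effect; tested at 10 µM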
CSC inhib: cancer stem cell inhibition | cancer stem cell-like cells viability, luminescence | inhibition, % at 7.5 µM | 300,000 compounds, 1.1% hits;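 active means mean at 75% or more and at least half the replicates too; inconclusive means mean and replicates disagree; tested in HMLE shEcad cells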;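 further: 0% = median of negative and 100% = median of positive control wells; the first replicate is given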
UUG fidelity: alters start codon recognition fidelity in yeast; S. cerevisiae UUG-firefly luciferase reporter, luminescence/redox ratio; activity score, % at 18.7 µM; 350,000 compounds, 0.13% hits; AID 602363;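 active means replicate mean at a twofold rise or more, about +100% in these data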;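 further: firefly luciferase made from a UUG start codon reports start codon fidelity; reporter light over untreated wells divided by growth signal over untreated wells; some hits fall short of that in this replicate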
MT1-MMP act inh RFP: further read-out of MT1-MMP act inh, marked with its call; RFP signal change, %; measured here: RFP expression control read;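 0 = vehicle wells; hits needed this value within 50% of zero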
Numbers without * were called inactive; i = inactive; u = inconclusive; x = no result given; & = joins results of further samples.

SMILES | MT1-MMP act inh | MT1-MMP act inh RFP | HIV Env fusion | eIF4H inh | PABP polyA inh | Rce1 inhib | CSC inhib | UUG fidelity
COc1cc2c(cc1OC)C(=NO)CCCC2 | 0 | -1 | 5 | x | x | x | x | -15
COc1ccccc1C(=O)NC(=O)COC(=O)CNC(=O)c1ccccc1 | 0 | 2 | 19 | x | x | i | -2 | 3
CSc1ccccc1NC(=O)CO/N=C(\C)c1cc2ccccc2o1 | 1 | -2 | 1 | 2 | 1 | i | 51 | -15
Cc1c(NC(=O)c2ccc(Cl)c([N+](=O)[O-])c2)cccc1-n1cnnn1 | -4 | 1 | 22 | x | x | x | 19 | -11
Cc1ccc(NC(=O)COC(=O)COc2cccc3c2OC(C)(C)C3)cc1C | 3 | 7 | -3 | -13 | -5 | i | -12 | -5
N/C(=N/O)c1cccn1Cc1ccccc1[N+](=O)[O-] | -6 | -2 | -3 | -10 | 0 | i | -25 | -16
Cc1ccc(NC(=O)CCCN2C(=O)/C(=C/C=C/c3ccccc3)SC2=S)cc1 | 10 | 10 | 5 | -5 | 8 | i | 13 | 18
COc1ccc(CC(=O)Nc2ccc(OC(C)=O)cc2C(=O)O)cc1 | -2 | -1 | 4 | -2 | 4 | i | -8 | x
Cc1nc2sc(C(c3ccccc3)N3CCN(c4ccccc4F)CC3)c(O)n2n1 (stereo not given) | 5 | 6 | -69 | -4 | -6 | i | x | -12
COc1ccc(CCN(C)Cc2nc(-c3cnccn3)no2)cc1OC | 5 | 8 | -6 | 3 | 4 | i | 3 | -11
CCC1CCCCN1Cc1ccc(CNS(=O)(=O)c2ccc3c(c2)oc(=O)n3C)o1 (stereo not given) | -17 | 8 | 2 | 55* | 68* | i | -6 | -6
CCC(CC)C(=O)Nc1nnc(S(=O)(=O)Nc2ccc(OC)cc2)s1 | 5 | 7 | 4 | 4 | 3 | i | -2 | -11
Cc1cc(=O)oc2c(C)c(OCC(=O)NCCCN3CCCC3=O)ccc12 | -1 | 3 | -17 | -2 | 7 | i | 3 | -16
CCOC(=O)C1CCN(S(=O)(=O)c2ccc3c(c2)N(C)C(=O)CC(=O)N3C)CC1 | -1 | 3 | -9 | -1 | -2 | i | -1 | -10
Cc1ccc(Cl)cc1N1CCN(C(=O)c2noc(C(C)C)c2[N+](=O)[O-])CC1 | -15 | -18 | 12 | -2 | -9 | i | 8 | -28
CCOc1ccccc1NC(=O)COC(=O)C1COc2ccccc2O1 (stereo not given) | 5 | 4 | -16 | x | x | x | x | -4
O=S(=O)(c1ccc(Cl)cc1)N1CCN=C1SCc1ccc(Cl)c(Cl)c1 | -3 | 1 | -15 | 1 | -19 | i | -2 | x
COc1cccc2c1O/C(=N\O)C(C(=O)Nc1cccc(Br)c1)C2 (stereo not given) | -3 | -6 | -23 | -9 | 2 | i | 12 | -7
CCN(CC(=O)Nc1ccc(NC(C)=O)cc1)C(=O)c1cc2c(s1)CCCC2 | -2 | 1 | x | x | x | x | -9 | 6
Cc1cc(NS(=O)(=O)c2ccc(NC(=O)/C=C/c3ccccc3)cc2)no1 | 3 | -1 | 3 | 2 | 20 | i | 1 | -19
CCc1nn(CC(=O)N2CCC(C)CC2)c(=O)c2cccn12 | 5 | 6 | -3 | -2 | 0 | i | -10 | -10
COC(=O)c1[nH]c2ccccc2c1NC(=O)CN1CCCc2ccccc21 | -14 | 2 | -53 | 8 | 9 | i | -13 | x
Oc1[nH]c2ccccc2c1N=NC(=S)NCCc1ccccc1 | -2 | 3 | -4 | -4 | -7 | i | 48 | -5
Cc1nc(N)c(Br)c(C)c1Br | 0 | 3 | -6 | -8 | 12 | i | 13 | x
Cc1cc(F)ccc1NC(=O)C1CSC2(C)CCC(=O)N12 (stereo not given) | 7 | -1 | x | x | x | i | -10 | -20
C[C@@H]1CN([C@H](C)CO)C(=O)CCCn2cc(nn2)CO[C@H]1CN(C)S(=O)(=O)c1cccc(F)c1 | 2 | 4 | 18 | x | x | x | x | -15&0
O=C1COc2cc(S(=O)(=O)CCC(=O)N3CCCCC3)c(Cl)cc2N1 | 2 | 2 | 6 | -18 | -2 | i | 4 | -10
O=C(CC1C[C@H](C(=O)N2CCOCC2)[C@@]2(CCC3CCCC3)c3[nH]c4ccccc4c3CCN2C1=O)NCCc1ccccn1 (stereo not given in full) | -6 | -7 | -44 | x | x | x | -14 | -25
CCCn1c(N2CCN(C)CC2)nc2c1c(=O)[nH]c(=O)n2C | -3 | -2 | x | -4 | -7 | i | -6 | -19
O=C(Nc1ccccc1F)c1cc2nc(C(F)F)cc(C(F)F)n2n1 | 4 | 1 | -226 | 3 | -2 | i | 10 | -19
Cc1nn2c(NCCOCCO)c3c(nc2c1-c1ccccc1)CCCC3 | 5 | -2 | x | -6 | -12 | i | -20 | -5
COc1ccc(N2CCN(C(=O)CCSCc3ccccc3F)CC2)cc1 | -4 | 0 | 11 | 8 | 7 | i | -7 | x
CN(C)C(CNC(=O)CSc1nc2sc3c(c2c(=O)n1C)CCCC3)c1ccccc1 (stereo not given) | -6 | -6 | x | x | x | x | 15 | -3
O=C(NCC1CC1)[C@]1(C(F)(F)F)C[C@H](CCC2CCCCC2)CCCO1 | -1 | 5 | 16 | x | x | i | -5 | -21
CC(CC(=O)c1cccs1)CC(=O)c1cccs1 | 15 | -6 | x | 6 | 9 | i | -12 | 2
Cc1nc(NCCc2ccc(O)cc2)c2nnn(Cc3ccccc3)c2n1 | 3 | -7 | -1 | 0 | 12 | x | 62 | 0
Nc1nnc(SCc2ccccc2F)n1-c1ccccc1 | 0 | -2 | -18 | -11 | -9 | i | 8 | -20
CN(C)/C=N/c1ncc(C(=O)c2ccc(Cl)cc2Cl)s1 | -1 | -3 | 6 | -12 | 8 | i | -9 | x
CCCCOC(=O)Nc1ccccc1C(N)=O | -1 | 5 | -44 | -11 | 10 | i | -8 | 1
O=C(Oc1ccc2c(=O)c(Cl)coc2c1)c1ccncc1 | -5 | 5 | -53 | -3 | 15 | x | -9 | -20
Cn1nc(C(=O)Nc2nc(-c3ccccn3)cs2)c2ccccc2c1=O | 6 | 2 | -36 | x | x | x | x | -16
CS(=O)(=NS(=O)(=O)c1ccc(Cl)cc1)c1ccccc1 (stereo not given) | -3 | -2 | 4 | -10 | -8 | i | -13 | x
Cc1nn(-c2ccccc2)c(C)c1/C=N/NC(=O)c1ccccc1O | -2 | -2 | -28 | 4 | 14 | i | -2 | -13
O=C(c1cc(-c2cccnc2)nc2ccc(Br)cc12)N1CCN(c2ncccn2)CC1 | -7 | -1 | x | -1 | -5 | i | 4 | -8
CCOc1ccc2c(c1)C(C)=CC(C)(C)N2C(=O)Nc1ccccc1 | -11 | 2 | x | u | u | i | -6 | x
Cc1ccc(-n2ccnc(SCC(=O)NCCc3ccccc3)c2=O)cc1F | -1 | -1 | x | x | x | i | 7 | -3
CCOc1ccc(-n2cc(C(=O)Nc3ccc(Cl)cn3)c3cc(OC)c(OC)cc3c2=O)cc1 | -12 | -8 | 31 | 3 | -6 | i | x | -10
CCCCN(CC)CCNC(=O)c1[nH]c(C)c(C(C)=O)c1C | 2 | -5 | i | -2 | 1 | i | x | x
COc1ccc([C@H]2C[C@H](O)[C@@H](n3cc(COC(=O)c4ccccc4)nn3)CN2CC2CCCCC2)cc1 | -2 | -5 | 14 | x | x | x | x | 6
Cc1nn(C)c(C(=O)N/N=C/c2ccc(C(F)(F)F)cc2)c1[N+](=O)[O-] | 5 | 0 | -10 | -1 | 0 | i | 0 | -18
COC(=O)c1ccccc1N(C)S(=O)(=O)c1cc2c(cc1C)OCC(=O)N2 | 5 | 4 | -30 | -5 | -18 | i | -3 | x
O=C1CSC(=Nc2ccccc2)N1Cc1ccccc1 | -4 | -1 | -18 | -8 | 24 | i | -9 | x
COc1ccc(N2C(=O)CSC2c2ccccc2[N+](=O)[O-])cc1 (stereo not given) | 0 | 4 | -12 | -10 | -2 | i | -22 | x
Cc1cccc(C(=O)c2cn[nH]c2-c2ccc(C)cc2O)c1 | -1 | 2 | -1 | -4 | -12 | i | -4 | -7
COc1ccc(OC)c(C(C(=O)NC2CCCCC2)N(Cc2ccco2)C(=O)c2ccccn2)c1 (stereo not given) | 0 | -2 | 11 | -5 | 4 | i | x | 1
COc1ccccc1CNCC(=O)Nc1ccc(N2CCOCC2)cc1 | -3 | 1 | -73 | -11 | -2 | i | 6 | -6
O=C(COC(=O)C1CC(O)CN1S(=O)(=O)c1ccc(Cl)cc1)c1cccc(Cl)c1 (stereo not given) | -4 | 0 | -21 | -4 | 6 | i | -4 | x
COc1ccc(NC(=O)CN(C)C(=O)Cc2c(C)nc3ccccc3c2C)cc1 | -11 | -19 | 34 | x | x | i | -16 | -21
Cc1nn(Cc2ccc(Cl)cc2)c(C)c1NC(=O)c1cc(-c2ccco2)on1 | 12 | -10 | 37 | -16 | -2 | x | -9 | -13
O=C(Nc1ccc(Br)cc1)C1CC(c2c(F)cccc2Cl)=NO1 (stereo not given) | 2 | -14 | -11 | -2 | 2 | x | 3 | -24

(further entries)
SMILES | MT1-MMP act inh | MT1-MMP act inh RFP | HIV Env fusion | eIF4H inh | PABP polyA inh | Rce1 inhib | CSC inhib | UUG fidelity
O=C(CCCc1ccccc1)Nc1ccccc1C(F)(F)F | 0 | 1 | 10 | -7 | 13 | i | 2 | -11
COCCn1nnnc1SCC(=O)NCc1ccc2c(c1)OCO2 | -2 | 2 | 7 | -3 | 1 | i | 8 | 1
Cc1ccc2oc(=O)c3cnn(CC(=O)NC4CCN(Cc5ccccc5)CC4)c3c2c1 | -3 | -2 | -11 | -2 | -1 | i | -6 | 6
O=C(Nc1ccccc1F)C1CCCC1 | 4 | 2 | 6 | x | x | i | -7 | -9
COC(=O)c1ccccc1S(=O)(=O)N1CCn2cccc2C1C (stereo not given) | -8 | 6 | -4 | 29 | 5 | i | -14 | -11
CCCC(=O)C1C(=O)CC(CC(C)SCC)CC1=O (stereo not given) | 9 | 5 | x | 6 | 1 | i | 0 | x
CCOC(=O)c1ccc2nc(NC(C)=O)sc2c1 | -1 | -1 | -78 | 3 | -2 | i | 4 | x
CCCn1nc(NC(=O)C(C)(C)C)c2cc3cc(OC)ccc3nc21 | -1 | -4 | -26 | 7 | 4 | i | -3 | -13
CC(NC(=O)CN1CCCC1)c1ccccc1 (stereo not given) | -3 | -1 | -14 | 5 | 0 | i | -6 | -9
CN1C(=O)/C(=C/c2ccccc2F)Sc2ccc(C(=O)NCC3CCCO3)cc21 (stereo not given) | 1 | -10 | 2 | -11 | 6 | i | -3 | 0
O=C(Nc1ccc(Cl)cn1)Nc1ccc(Cl)cn1 | -2 | 4 | -27 | 4 | 8 | i | 6 | x
Cc1cc(C)nc(NC(=O)CCN2C(=O)c3ccccc3S2(=O)=O)n1 | 0 | 1 | -3 | x | x | i | -17 | -4
Cc1cc(Nc2ccccc2)nn1C(=O)c1ccc(Cl)cc1 | 1 | 4 | 1 | -9 | 0 | i | 9 | x
CCN(CC)CCCn1c2c(c(SCC(=O)Nc3ccc(OC(F)(F)F)cc3)nc1=O)CCC2 | 4 | 3 | 12 | x | x | i | -7 | 1
O=C(O)C1(P(=O)(c2ccccc2)c2ccccc2)CCC1 | 1 | 3 | x | 8 | 2 | x | -14 | -10
Cc1ccc(Nc2nc3ccccc3n3cnnc23)c(Cl)c1 | -2 | 6 | -1 | -5 | -15 | i | 4 | -10
Cc1ccc2c(c1)nc1c3ccccc3nc(-c3ccccc3N)n21 | -9 | -7 | 11 | x | x | x | x | -28
